# Bioassay records from PubChem BioAssay.
# HSV replic up: HSV replication enhancement; HSV replication augmentation in cells, fold increase; maximum fold increase; actives 0.005% (n = 220,000); AID 1956;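 active = peak rise of 1.5-fold or more in the series; tested in PC3 cells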;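 note: first round at 10 µM; read as green reporter fluorescence; hits show the peak of a series up to 25 µM; 1 = signal of infected wells without compound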
# PKD1 kinase inh: inhibitors of human PKD1 kinase; Q15139; actives 0.056% (n = 200,000); PKD1 kinase fluorescence polarization assay; AID 797; inhibition, %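 (about 10 µM by stock and volumes)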;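 active = inhibition of 50% or more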;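 note: controls were vehicle for no effect and a reference inhibitor for full effect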
# RGS16-Gao: modulates binding between human RGS16 and Galphao | O15492+P09471 | bead-based flow cytometry RGS16-Galphao binding, fluorescence; actives lie on both sides | binding response (% of control), % at 10 µM | actives 0.38% (n = 220,000);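 active = below 25% or above 175%, edge rows of some plates excepted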;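 note: Galphao activated by GDP with aluminum fluoride before binding; 100% = wells without compound and 0% = beads without RGS; some results beyond the cut were filed as inactive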
# Target sequence (O15492 whole entry, looked up): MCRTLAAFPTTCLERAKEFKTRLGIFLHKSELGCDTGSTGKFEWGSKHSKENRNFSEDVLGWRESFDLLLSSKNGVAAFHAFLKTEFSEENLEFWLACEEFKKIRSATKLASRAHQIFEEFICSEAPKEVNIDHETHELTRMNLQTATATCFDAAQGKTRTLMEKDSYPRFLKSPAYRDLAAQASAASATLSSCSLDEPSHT
# Target sequence (P09471 whole entry, looked up): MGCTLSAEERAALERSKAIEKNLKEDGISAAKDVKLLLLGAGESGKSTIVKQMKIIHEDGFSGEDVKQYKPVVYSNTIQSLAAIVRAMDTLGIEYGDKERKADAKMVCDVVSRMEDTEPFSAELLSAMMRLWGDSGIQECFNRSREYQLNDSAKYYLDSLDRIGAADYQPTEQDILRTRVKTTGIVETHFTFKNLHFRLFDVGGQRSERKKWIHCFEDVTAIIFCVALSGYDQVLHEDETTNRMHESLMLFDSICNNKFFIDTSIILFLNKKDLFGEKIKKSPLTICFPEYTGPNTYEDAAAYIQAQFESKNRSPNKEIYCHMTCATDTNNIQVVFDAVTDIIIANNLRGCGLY
# GALR2 ag: agonists of human galanin receptor 2 (GALR2) | GALR2-expressing cells, agonist activation read-out | activation, %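 (tested at 5 µM)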 | actives 0.48% (n = 140,000) | O43603 | AID 803;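 active = above mean plus 3 SD of all compounds, about 5% in these data, not always enough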;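 note: 0% = vehicle buffer wells and 100% = reference agonist at full effect; tested in CHO reporter cells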
# Target sequence (O43603 whole entry, looked up): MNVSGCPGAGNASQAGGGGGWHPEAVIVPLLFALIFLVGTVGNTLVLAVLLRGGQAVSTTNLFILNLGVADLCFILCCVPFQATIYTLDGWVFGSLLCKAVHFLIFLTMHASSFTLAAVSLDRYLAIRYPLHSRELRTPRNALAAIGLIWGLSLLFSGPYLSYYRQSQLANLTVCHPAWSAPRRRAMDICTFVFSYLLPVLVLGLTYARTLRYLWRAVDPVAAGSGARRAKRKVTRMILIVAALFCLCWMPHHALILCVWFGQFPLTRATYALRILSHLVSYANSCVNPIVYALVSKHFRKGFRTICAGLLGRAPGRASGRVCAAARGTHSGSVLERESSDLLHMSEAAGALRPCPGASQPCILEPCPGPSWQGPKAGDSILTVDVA
# INS promoter inh: TRM-6 insulin promoter activity inhibition | AID 1273 | TRM-6 cells (human fetal islet line), insulin promoter-eGFP reporter, imaging; reporter expression induced with tamoxifen | actives 0.9% (n = 130,000) | inhibition, % at 2 µM;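 active = inhibition above the mean plus 3 SD, with well images judged a real hit on visual review, cut at about 60% in these data, passing the limit was not always enough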
# INS promoter inh cell count: further read-out of INS promoter inh, marked with its call; normalized cell count, %; measured here: cell count, toxicity; reference of the scale not given here;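 cells exposed to compound for 48 h; stained nuclei by imaging scaled within each plate; lower means fewer cells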
# HSV replic up primary fold: second read-out of HSV replic up, no call of its own (marks repeat the call); fold increase; compound at 10 µM; measured here: primary screen fold increase 10 uM; tested in PC3 cells;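 GFP signal in the first replicate; 1 = infected wells without compound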
# Numbers without * were called inactive; i = inactive; · = not tested or not shown; [ ] = remark or other dose.
SMILES,HSV replic up,HSV replic up primary fold,PKD1 kinase inh,RGS16-Gao,GALR2 ag,INS promoter inh,INS promoter inh cell count
CNc1nc(-c2c[nH]c3ccccc23)cs1,i,1,-2,202*[activator],-0.5,21,134
COc1ccccc1NS(=O)(=O)c1ccc2oc(SCc3ccc(C#N)cc3)nc2c1,i,0.97,7,103,-1.9,-27,110
CCOc1ncccc1C(=O)Nc1nc(C(C)(C)C)cs1,i,0.93,-3,96,·,0,114
NC(=O)NC(=O)COC(=O)CN1C(=O)C2CCCCC2C1=O (centres undefined),i,0.93,-6,89,-1.4,·,·
O=C(CCc1ccccc1)C(=O)N1CCCC(C(=O)c2cccc(Cl)c2)C1 (centres undefined),i,1,1,108,·,-25,91
CN1CC(=O)Nc2ccc(F)cc2C1=O,·,·,0,97,-0.3,38,128
O=C(CC1SCCNC1=O)Nc1ccc(F)c(Cl)c1 (centres undefined),i,0.86,0,105,·,·,·
CNC(=S)/N=C/NOCc1ccc(Cl)cc1Cl,i,0.81,1,105,·,-4,66
O=C(CCSc1ccc(F)cc1)Nc1ccc(-n2cnnn2)cc1,i,0.9,3,103,-2.7,31,228
O=C(Nc1ccccc1)Nc1ccccc1-n1ccnc1,i,0.96,2,94,·,-80,106
COC(=O)/C=C1\OC(c2ccccc2)=CC1=O,i,1,-13,90,-0.8,30,84
O=C(Cn1cncn1)N/N=C/c1c2ccccc2cc2ccccc12,i,0.8,-13,112,0.7,-5,45
CC1(C)C([N+](=O)[O-])C(c2ccc(O)cc2)NC(c2ccc(O)cc2)C1[N+](=O)[O-] (centres undefined),i,0.96,2,98,-0.3,-33,103
COc1ccccc1N1CCN(C(=O)CN(c2ccc(C)c(C)c2)S(C)(=O)=O)CC1,i,0.98,-1,115,-2.0,22,112
CCOc1ccc(CCNC(=O)CCc2nc3ccccc3[nH]2)cc1OCC,i,0.92,-10,100,·,0,118
CCC(CC)C(=O)OCC(=O)Nc1ccc(S(=O)(=O)N2CCOCC2)cc1OC,i,1,5,101,-0.4,25,80
CC1=NNC(=O)C1CC(=O)N/N=C/c1ccncc1 (centres undefined),i,0.94,·,106,·,·,·
Cc1ccc(NCN2C(=O)C3C4C=CC(C4)C3C2=O)cc1 (centres undefined),i,1.2,-6,113,-3.0,23,116
CC(=O)c1nn(-c2ccc(Br)cc2)cc1C(=O)c1ccccc1,i,0.88,-11,97,8.6*,-13,97
Cc1ccc(-n2ncc3c(=O)[nH]c(SCC(=O)N4CCOCC4)nc32)cc1,·,·,-2,99,-0.8,-33,147
COc1ccc(/C=C/C(=O)Nc2cc(C)nn2-c2nc3ccccc3[nH]2)cc1,i,0.98,-1,90,-0.8,·,·
O=C(/C=C/c1cccc([N+](=O)[O-])c1)NC(=S)Nc1ccccc1C(=O)O,i,0.84,-6,97,·,-33,108
COc1ccc(Nc2cc(Cl)nc(N)n2)cc1OC,i,0.96,9,107,·,55,137
CC(=O)Nc1cc(C(=O)c2ccccc2)ccc1N1CCOCC1,i,0.92,-13,101,0.2,-20,111
COC(=O)c1cccc(OC(N)=O)c1,i,0.99,10,108,-1.1,45,102
COc1ccc(C)cc1S(=O)(=O)N(CC(=O)Nc1cc([N+](=O)[O-])ccc1C)c1ccc(C)c(C)c1,i,1.1,-1,52,-0.7,·,·
CCC1CCCCN1C(=O)CCn1ccnc1 (centres undefined),i,0.94,-6,97,·,·,·
CCOC(=O)Cc1csc(NC(NC(=O)OCC)(C(F)(F)F)C(F)(F)F)n1,i,1.1,-3,98,-2.0,10,105
O=S(=O)(Nc1ccc(N2CCOCC2)cc1)c1ccc(F)cc1F,i,0.94,4,98,·,·,·
Cc1ccc(-c2c3c(=O)n(C)c(=O)n(C)c3cn2-c2ccccc2O)cc1,i,0.8,-9,98,0.9,-9,115
Cc1nc(Nc2nc(=O)c3ccccc3n2C)nc2c(C)cccc12,·,·,-1,·,0.9,37,106
COC(=O)c1c[nH]n2c(=O)cc(CCl)nc12,i,0.94,-1,100,1.4,23,100
Cc1ccc(NC2c3ncccc3C(=O)N2C2CCCCC2)cc1 (centres undefined),i,0.86,7,109,-0.9,-29,159
CC1(C)CC(=O)C2=C(C1)OC(/N=C/N1CCOCC1)=C(C#N)C2c1ccccc1 (centres undefined),i,0.89,2,90,-0.1,-12,99
COc1ccc2c(C)cc(C)nc2n1,i,1.2,·,98,·,·,·
S=C1NCN(C2CCCCC2)CN1CCc1ccccc1,i,0.97,·,104,·,·,·
Cc1cc(C)c(S(=O)(=O)N(C)CC(=O)NCc2ccncc2)c(C)c1,i,1,-1,93,·,·,·
S=C(N/N=C/c1ccc2ncccc2c1)Nc1ccccc1,i,0.91,8,105,·,6,78
COc1ccc(CCNC(=O)C2CCCN(c3ncccn3)C2)cc1 (centres undefined),i,0.98,-3,92,·,·,·
O=C(O)/C=C\C(=O)NCc1ccccc1,i,0.94,3,102,-1.2,19,107
O=C1C2CC(O)CN2C(=O)N1c1ccccc1 (centres undefined),i,1.1,1,101,·,0,42
CC1CC1C(=O)Nc1nc(-c2ccccn2)cs1 (centres undefined),i,0.96,-9,111,-2.6,43,94
Cc1ccc(S(=O)(=O)ON=C2CCN(S(=O)(=O)c3ccccc3)CC2)cc1,i,0.81,-11,99,-0.4,29,86
COC(=S)Nc1cccc(C(F)(F)F)c1,i,1,·,100,·,·,·
COc1ccc(S(=O)(=O)n2nc(OC(=O)c3cccs3)cc2NC(=O)c2cccs2)cc1,i,1.3,6,101,·,·,·
O=C(NCC(=O)N(c1ccccc1)C(C(=O)NC1CCCC1)c1ccncc1)c1ccco1 (centres undefined),i,0.98,-2,·,-2.8,44,168
CC1CC(C)(C)NC(=S)S1 (centres undefined),i,1,-1,93,-1.4,47,144
CN1CCN(C(=O)c2ccc(CN(c3ccccc3)S(=O)(=O)c3ccccc3)cc2)CC1,i,1.1,1,94,·,·,·

# Reformatted with values under each structure: five of the compounds above.
# Fields – HSV replic up, HSV replic up primary fold, PKD1 kinase inh, RGS16-Gao, GALR2 ag, INS promoter inh, INS promoter inh cell count
- Cc1cc(C)c(S(=O)(=O)N(C)CC(=O)NCc2ccncc2)c(C)c1
    i, 1, -1, 93, ·, ·, ·
- S=C(N/N=C/c1ccc2ncccc2c1)Nc1ccccc1
    i, 0.91, 8, 105, ·, 6, 78
- COc1ccc(CCNC(=O)C2CCCN(c3ncccn3)C2)cc1 (centres undefined)
    i, 0.98, -3, 92, ·, ·, ·
- O=C(O)/C=C\C(=O)NCc1ccccc1
    i, 0.94, 3, 102, -1.2, 19, 107
- O=C1C2CC(O)CN2C(=O)N1c1ccccc1 (centres undefined)
    i, 1.1, 1, 101, ·, 0, 42

# (further entries)
SMILES,HSV replic up,HSV replic up primary fold,PKD1 kinase inh,RGS16-Gao,GALR2 ag,INS promoter inh,INS promoter inh cell count
Cc1ccccc1C(=O)c1cccn1CC(=O)NCc1ccco1,i,0.98,4,102,-0.7,·,·
CCOc1cc(N2CCOCC2)c(OCC)cc1NC(=O)CN1C(=O)C2C3C=CC(C3)C2C1=O (centres undefined),i,0.96,2,98,·,·,·
O=C(N/N=C/c1cccn1-c1cccc(C(=O)O)c1)Nc1ccccc1,i,1,-4,108,-0.4,44,99
COc1ccc(N2C(=O)CSC23C(=O)N2CCCc4cccc3c42)cc1 (centres undefined),i,0.98,-4,101,-0.9,0,91
CCOc1cc2[nH]c(=O)n(Cc3ccccc3)c(=O)c2cc1OCC,i,0.74,-10,100,-1.4,-21,166
CN1CCN(Cc2c(O)ccc3c2oc(=O)c2ccccc23)CC1,i,0.88,-19,105,0.0,·,·
CC(CO)Nc1nc(SCc2ccccc2)nc2sc3c(c12)CCC3 (centres undefined),i,0.81,7,95,1.3,6,154
CC(C)[C@H](NS(=O)(=O)/C=C/c1ccccc1)C(=O)OCC(=O)NC(N)=O,i,0.86,·,101,·,·,·
CCCCOc1ccc(OCCNS(=O)(=O)N(C)C)cc1,i,0.92,-5,60,-1.2,54,107
CCOC(=O)c1sc(=S)n(C)c1NC(=O)c1ccc(F)cc1,i,1.1,1,63,-0.6,-75,93
CC(=O)Nc1ccccc1-c1nc2ccccc2nc1OCC(=O)c1ccc(Br)cc1,i,1,-10,121,-3.1,-17,124
Cc1cccc(C)c1N(CC(=O)Nc1cc(Cl)ccc1Oc1ccccc1)S(C)(=O)=O,i,1.2,-10,203,-1.5,-7,74
Cc1ccc(-n2cccc2/C=C2/C(=N)N3C(=NC2=O)SN=C3S(C)(=O)=O)cc1,i,0.98,-4,84,·,0,161
CC(=O)Nc1ccc(OCC=C(Cl)Cl)cc1,i,0.87,-2,98,-1.5,-87,27
N#CCCN(C(=O)COC(=O)COc1ccc(Cl)cc1)c1ccccc1,i,0.92,-2,110,·,-17,138
CCN(CC)CCNC(=O)Cc1nn(CC)c(=O)c2ccccc12,i,0.94,1,103,-1.1,27,104
CCOC(=O)c1ccc2c(c1)n(CCO)c(C)[n+]2CC,i,0.78,-12,73,-1.2,-25,99
Cc1cccc(Cl)c1NC(=O)N1CCCN(c2nc3ccc(Cl)cc3s2)CC1,i,1.1,·,102,·,·,·
O=C(CCCn1c(=O)c2sccc2n(Cc2cc(=O)n3ccccc3n2)c1=O)NCc1ccco1,i,0.91,-3,156,-2.2,·,·
CCOC(=O)c1sc2nccc(N(C)C)c2c1N=CN(C)C,i,1,2,103,0.4,·,·
COc1ccc(CN2C(=O)CCC2(C)C(=O)NC2CCCCC2)c(OC)c1 (centres undefined),i,0.85,-3,100,-2.1,5,74
CCOC(=O)/C(=C/c1c[nH]c2ccccc12)NC(C)=O,i,0.97,10,97,-1.4,17,104
COc1cccc(OC)c1C(=O)Nc1nc2ccc([N+](=O)[O-])cc2s1,i,1,3,102,·,·,·
Fc1ccc(NC(=S)NCc2ccccc2Cl)cc1,i,0.85,-2,105,-1.2,-25,116
c1ccc(-c2cc(-c3ccc(N4CCOCC4)cc3)nc3ccccc23)cc1,i,0.97,-15,105,2.6,18,109
COc1cc(/C=C/CN2CCN(CCC(C)C)C(CCO)C2)ccc1O (centres undefined),i,1.1,-2,103,·,·,·
C#CCn1c(=NC(=O)c2ccc(Br)s2)sc2cccc(OC)c21,i,0.66,-6,51,-1.5,·,·
Cc1nn(-c2ccc(C(F)(F)F)cn2)c(C)c1Oc1ccccc1O,i,0.97,-2,101,-0.4,28,113
CCCCN(C)C(=O)CC(NS(=O)(=O)c1ccc(NC(C)=O)cc1)C(C)C (centres undefined),i,1,-3,103,·,-26,80
CCOC(=O)c1c(N)sn(-c2ccccc2)c1=S,i,0.88,-5,101,0.0,17,159
CCCn1c(SCC(N)=O)nnc1-c1ccco1,i,0.9,-6,98,-1.0,-15,121
COc1ccc(S(=O)(=O)NCC2CCC(C(=O)N3CCC4(CC3)OCCO4)CC2)cc1 (centres undefined),i,0.93,-17,101,1.4,16,64
COC(=O)c1cc(NC(=O)Nc2cccc(Cl)c2)ccc1Cl,i,0.86,11,103,-3.8,·,·

# Grouped by structure: the compounds so far containing a thiophene ring, fused or not (5)
SMILES,HSV replic up,HSV replic up primary fold,PKD1 kinase inh,RGS16-Gao,GALR2 ag,INS promoter inh,INS promoter inh cell count
COc1ccc(S(=O)(=O)n2nc(OC(=O)c3cccs3)cc2NC(=O)c2cccs2)cc1,i,1.3,6,101,·,·,·
CC(CO)Nc1nc(SCc2ccccc2)nc2sc3c(c12)CCC3 (centres undefined),i,0.81,7,95,1.3,6,154
O=C(CCCn1c(=O)c2sccc2n(Cc2cc(=O)n3ccccc3n2)c1=O)NCc1ccco1,i,0.91,-3,156,-2.2,·,·
CCOC(=O)c1sc2nccc(N(C)C)c2c1N=CN(C)C,i,1,2,103,0.4,·,·
C#CCn1c(=NC(=O)c2ccc(Br)s2)sc2cccc(OC)c21,i,0.66,-6,51,-1.5,·,·

# An unsorted share of the library. Share with any hit: about 1.3%.
